# Screens as filed in PubChem BioAssay.
# Hsc70: Hsc70 inhibitors, probe displacement, primary screen, biochemical, fluorescence polarization (AID 568); Heat shock cognate 71 kDa protein (Homo sapiens); Hsc70 fluorescence polarization, probe displacement; higher % means a stronger effect; strong numbers were not always called active; displacement, % at 20 µM; hits with a dose series show IC50 in µM; 83,000 tested, under 10 active;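 active means displacement above 50% without optical interference and an IC50 on retest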;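 further: ATPase domain with a fluorescein-tagged ATP probe; 0% = vehicle and 100% = excess ADP; read after one hour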
# MT1-MMP promoter: inhibitors of MT1-MMP promoter transcription, cell-based, luciferase reporter, luminescence (AID 618); MT1-MMP promoter luciferase reporter cells, luminescence; calls from a first round at 10 µM; hits with a dose series show EC50 in µM; 87,000 tested, 0.62% active;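 active means over half of the reporter light lost at 10 µM or EC50 under 50 µM; inactive means the rest and hits that failed the dose series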;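 further: actives suppress MT1-MMP promoter-driven transcription so potencies describe inhibitors; HT1080 fibrosarcoma cells; overnight exposure; toxic or luciferase-blocking compounds were not removed from the actives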
# WNV protease inh: inhibitors of WNV NS2B-NS3 protease, primary screen, biochemical, fluorogenic substrate | Genome polyprotein (West Nile virus), P06935 | fluorogenic substrate Ex360/Em465; stronger effect = lower value | z-score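 (tested at a level between 10 and 100 µM)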 | 65,000 tested, 0.18% active;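 active means z-score at -3 or under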;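 further: score is relative to mean and spread of the compound wells of a plate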
# Target sequence (P06935 1371-1501 limits assumed): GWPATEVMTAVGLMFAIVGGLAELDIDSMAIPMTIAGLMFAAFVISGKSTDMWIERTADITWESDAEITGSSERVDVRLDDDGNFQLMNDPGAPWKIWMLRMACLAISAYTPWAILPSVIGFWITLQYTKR
# Target sequence (P06935 1502-1679 limits assumed): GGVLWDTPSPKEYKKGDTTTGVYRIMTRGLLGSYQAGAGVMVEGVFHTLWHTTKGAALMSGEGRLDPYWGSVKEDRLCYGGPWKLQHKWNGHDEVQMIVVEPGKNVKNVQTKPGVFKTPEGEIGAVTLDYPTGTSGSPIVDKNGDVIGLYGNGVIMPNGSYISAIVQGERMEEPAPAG
# Active calls of the source: *; i = inactive; · = not tested or not shown. Not all compounds are listed; count on the stated rates, not on these rows.
Compound,Hsc70,MT1-MMP promoter,WNV protease inh
O=C1CC(N2CCN(CCc3ccccn3)CC2)C(=O)N1c1ccc(Cl)cc1 (stereo unspecified),1.4%,i,0.46
COc1ccccc1N1CCN(C(=O)COc2ccc(Cl)cc2Br)CC1,3.0%,i,-0.08
CN(C)CCCNC(=O)CCC1CCCCC1,4.1%,i,0.32
CCOC(=O)c1sc2ncnc(N3CCN(c4ccc(OC)cc4)CC3)c2c1C,-3.6%,i,-0.44
CCOC(=O)N1CCN(C(c2ccccc2)c2sc3nc(C)nn3c2O)CC1 (stereo unspecified),4.7%,i,-0.9
Cc1ccccc1-n1c(SCC(=O)N2CCCC2)nnc1-c1ccccn1,1.6%,i,0.61
Cc1cccc(N2CCN(c3nc4ccccc4n4cnnc34)CC2)c1C,0.9%,i,0.43
N/C(=N\OC(=O)/C=C/c1ccccc1)c1ccccc1,-9.0%,i,·
CCC(=O)Nc1cc(-c2nn(C)c(=O)c3ccccc23)ccc1OC,-5.2%,i,-2
Nc1nnc(Cc2c[nH]c3ccccc23)s1,4.9%,i,-0.51
O=C(NCc1ccc(Cl)cc1)c1cccnc1,4.7%,i,-0.33
O=C(Cn1c(=O)n(Cc2ccco2)c(=O)c2c3c(sc21)CCCCC3)Nc1ccccc1,0.2%,i,·
Cc1cnc(N)c2c(=O)oc3ccccc3c12,0.7%,i,1.2
O=C(NCCCc1ccccc1)c1cnc2n(c1=O)CCS2,2.8%,i,-0.64
CC(C)OC(=O)CCCCCN1C(=O)CSC1=S,1.2%,i,0.51

# Following part.
Compound,Hsc70,MT1-MMP promoter,WNV protease inh
COc1ccc(CC(NC(C)=O)C(=O)NC2CCN(C(=O)c3cnccn3)CC2)cc1 (stereo unspecified),-2.4%,i,·
CN(C)C(=O)N1CCCC(C(=O)NCc2cccs2)C1 (stereo unspecified),-1.0%,i,0.09
Cc1[nH]nc(N=CC2=C(O)CC(c3ccco3)CC2=O)c1-c1ccccc1 (stereo unspecified),0.3%,i,0.41
COc1ccc(Cl)cc1C(=O)Nc1ccc(NC(=O)c2ccco2)cc1,1.0%,i,-0.69
Fc1ccc(-c2nnc3ccc(N4CCCC4)nn23)cc1,-1.8%,i,-0.45
CCN(CC)CCN1C(=O)C(=O)/C(=C(/O)c2c(C)[nH]c(C(=O)OC)c2C)C1c1cccnc1 (stereo unspecified),1.5%,i,0.38
O=C(NCc1ccccn1)c1ccc(=O)oc1,-3.1%,i,-0.08
O=C(CSc1nccn1-c1cccc(Cl)c1)NC1CCCC1,4.3%,i,1
CCN1CCN(C(=O)c2ccc3c(=O)n(C4CCCC4)c(=S)[nH]c3c2)CC1,-0.5%,i,0.05
COc1ccc(OC)c(C2C=C(c3ccc(C)c(C)c3)Nc3nnnn32)c1 (stereo unspecified),-7.6%,i,-1
Cn1c(=O)c2c(nc(CN3CCc4ccccc4C3)n2Cc2ccc(Cl)cc2)n(C)c1=O,-7.7%,i,1.7
O=C(NCc1cccs1)C1CCN(c2ccc(S(=O)(=O)N3CCOCC3)cc2Cl)CC1,-4.6%,i,0.13
O=C(NC1(C(F)(F)F)NC(=O)N(Cc2cccnc2)C1=O)c1ccccc1Cl (stereo unspecified),-3.4%,i,·
COCC(=O)N(Cc1cc2ccccc2[nH]c1=O)c1ccc(OC)cc1,-2.6%,i,-0.62
Cc1cc2c(s1)CCCCC(=O)N2,0.8%,i,1.2

# (further entries)
Compound,Hsc70,MT1-MMP promoter,WNV protease inh
COc1ccc2c(c1)CCc1c(C(=O)NC3CCCCC3)noc1-2,-1.8%,i,1.1
CC(=O)Nc1ccc(S(=O)(=O)N[C@H](C(=O)O)C(C)C)cc1,3.0%,i,-0.25
CCCc1nnc(NC(=O)CC(=O)Nc2ccccc2C(=O)O)s1,-1.4%,i,·
CCOC(=O)C1C(=O)CC(=O)CC1CC(C)SCC (stereo unspecified),-2.1%,i,-2.3
Cc1ccc(C)c(NC(=O)c2ccc3c(c2)N(Cc2ccc(F)cc2)C(=O)CS3=O)c1 (stereo unspecified),-3.2%,i,-0.03
CCOC(=O)C1=C(C)OC(N)=C(C#N)C1c1cc(OC)c2c(c1)OCO2 (stereo unspecified),4.9%,i,-1.4
NC(=O)C1(N2CCCCC2)CCN(C2CC(=O)NC2=O)CC1 (stereo unspecified),3.3%,i,·
COC(=O)Nc1ccc(S(=O)(=O)N2CCN(CCN3C(=O)C4C5C=CC(C5)C4C3=O)CC2)cc1 (stereo unspecified),4.6%,i,·
Cn1c(=O)c2c(SCC(N)=O)nc(CC(C)(C)C)nc2n(C)c1=O,1.6%,i,0.66
Cc1cnc(C(=O)OCC(=O)N2CCc3ccccc3C2)cn1,-4.3%,i,1.7
COc1ccc(-n2c(=O)c3ccccc3n(CC(=O)Nc3cc(C)on3)c2=O)cc1OC,-1.5%,i,-0.97
COc1ccc(C(=O)N2CCC(N3CCN(c4ccccc4)CC3)CC2)cc1OC,-1.7%,i,0.62
CCCC(=O)N1CCc2cc(-c3nc(N)sc3C)ccc21,3.6%,i,-1.2
CCOC(=O)CN1NC2(CCC(C)CC2)NC1=S (stereo unspecified),9.1%,i,·
CCC(C(=O)O)n1c(C(F)(F)F)nc2ccccc21 (stereo unspecified),-3.2%,i,0.3

# The results go on:
Compound,Hsc70,MT1-MMP promoter,WNV protease inh
COCCSc1nnc(NC(=O)Cc2cccs2)s1,-4.4%,i,1
CCC(=O)Nc1nc(-c2ccccc2)ns1,2.3%,i,·
CC1(C)S[C@@H]2[C@H](NC(=O)[C@H](N)c3ccc(O)cc3)C(=O)N2[C@H]1C(=O)O,-3.8%,i,·
COC(=O)c1sc(NC(=O)c2csc3c2CCCC3)nc1C,4.9%,i,1.6
O=C(O)CN1CCN(Cc2ccccc2)C1=O,-4.0%,i,-1.6
CCOC(=O)C(NC(=O)CC(C)C)(Nc1cc(C)on1)C(F)(F)F (stereo unspecified),2.4%,i,-0.15
Cn1c(=O)oc2cc(S(=O)(=O)Nc3cccc(C(=O)O)c3)ccc21,-5.1%,i,-0.36
Cn1c(-c2ccc(C(C)(C)C)cc2)n[nH]c1=S,-3.5%,i,0.39
Cc1ccc(C)c(N(C(=O)Cn2nnc(-c3cccs3)n2)C(C(=O)NC2CC2)c2ccc(C)o2)c1 (stereo unspecified),-2.2%,i,0.65
CCOC(=O)CSc1ccc(-c2nc3cc(C)c(C)cc3[nH]2)cn1,4.4%,i,·
CC1=C(C(=O)OC2CCCCC2)C(c2ccco2)n2ncnc2N1 (stereo unspecified),5.4%,i,-1.2
CN(C)c1nc(Oc2ccc(/C=N/O)cc2)nc(N(C)C)n1,0.4%,i,3
COc1ccc(C2C3=C(CCCC3=O)Nc3nc4ccccc4n32)cc1OC (stereo unspecified),0.0%,i,0.45
COc1ccc(-c2nnnn2-c2ccccc2OC)cc1,2.4%,i,2.2
Cc1cccc2cc(C#N)c(NCCNS(=O)(=O)c3ccc4c(c3)OCCO4)nc12,-7.9%,i,-0.2

# More records follow:
SMILES	Hsc70	MT1-MMP promoter	WNV protease inh
CCCCNC(=O)Nc1cnn(CC)c1C(N)=O	-2.0%	i	-0.4
Cc1cnc(C(=O)OCC(=O)Nc2ccc(Cl)cc2)cn1	-0.5%	i	-0.5
Cc1cc(=O)oc2cc(OCC(=O)N3CCCC(C)C3)ccc12 (stereo unspecified)	-2.8%	i	0.3
C[N+]1(CC(=O)OCCCc2ccccc2)CCOCC1	-5.0%	i	·
N#Cc1nc(-c2ccccc2Cl)oc1N1CCOCC1	-2.1%	i	0.53
COc1ccc(/C=N/c2nc3ccccc3n2C)cc1OC	2.0%	i	1.2
Cc1ccc(C)c2c(SC(C)C(=O)NCc3ccco3)nc(-c3ccccc3)nc12 (stereo unspecified)	0.4%	i	·
COC(=O)C1CCCN1C(C(=O)NC1CCCCC1)c1ccc(Cl)cc1 (stereo unspecified)	1.9%	i	-1.2
CC1N(C)c2cc(NC(=O)c3ccco3)ccc2C1(C)C (stereo unspecified)	1.3%	i	-0.53
O=C(C1CCN(c2nnc(-n3cccc3)s2)CC1)N1CCOCC1	1.3%	i	-0.16
C=CCNC(=O)c1c(-c2c(F)cccc2Cl)noc1C	1.3%	i	·
O=C(NC1CCCCCC1)c1ccc(CN2CCOCC2)cc1	0.2%	i	·

# Following part
SMILES	Hsc70	MT1-MMP promoter	WNV protease inh
CCN(CC)C(=O)COc1ccc2oc(C)c(C(=O)OC)c2c1	-11%	i	-0.86
COc1ccc2cc(CN(CCO)C(=O)c3ccc(Br)cc3)c(=O)[nH]c2c1	0.9%	i	-0.46
O=C(O)COc1ccc2c3c(c(=O)oc2c1)CCC3	2.7%	i	·
Cn1cccc1C(C(=O)NC1CCCCC1)N(C(=O)Cc1cccs1)c1ccc2c(c1)OCO2 (stereo unspecified)	-0.1%	i	-1.1
Cc1ccc(-n2c3c(cc(C(=O)NCc4ccco4)c2=O)C(=O)CC(C)(C)C3)cc1	5.5%	i	0.19
CCc1ccc(OCC(=O)Nc2ccc3c(c2)COC3=O)cc1	3.0%	i	·
CCOC(=O)N1CCN(C(=O)C2COc3ccccc3O2)CC1 (stereo unspecified)	2.1%	i	0.01
CCOc1ccccc1-n1c(SCC(=O)NC)nnc1-c1ccco1	1.9%	i	-0.04
CC1CCCCN1S(=O)(=O)c1ccc(S(=O)(=O)N2CCN(c3ccccc3)CC2)cc1 (stereo unspecified)	6.5%	i	·
COc1cc(-c2nnc(SCc3c(F)cccc3Cl)o2)cc(OC)c1OC	2.2%	i	-0.65
Cc1cc(NC(=O)c2cccnc2)ccc1NC(=O)c1ccco1	0.5%	i	0.04
Cc1ccc2ccccc2c1COC(=O)c1nonc1N	-6.2%	i	0.16

# The list goes on; it opens with the 6 that closed the last part.
SMILES	Hsc70	MT1-MMP promoter	WNV protease inh
CCOC(=O)N1CCN(C(=O)C2COc3ccccc3O2)CC1 (stereo unspecified)	2.1%	i	0.01
CCOc1ccccc1-n1c(SCC(=O)NC)nnc1-c1ccco1	1.9%	i	-0.04
CC1CCCCN1S(=O)(=O)c1ccc(S(=O)(=O)N2CCN(c3ccccc3)CC2)cc1 (stereo unspecified)	6.5%	i	·
COc1cc(-c2nnc(SCc3c(F)cccc3Cl)o2)cc(OC)c1OC	2.2%	i	-0.65
Cc1cc(NC(=O)c2cccnc2)ccc1NC(=O)c1ccco1	0.5%	i	0.04
Cc1ccc2ccccc2c1COC(=O)c1nonc1N	-6.2%	i	0.16
CCOc1ccc(-n2nc3c(-n4ncc(C#N)c4N)nnc(C)c3c2C)cc1	-2.5%	i	·
COCCNc1ncnc2c1cnn2Cc1ccc(Cl)cc1	0.8%	i	0.18
Clc1ccc(OCCn2c(-c3ccco3)nc3ccccc32)cc1	-7.2%	i	·
CCC(c1c(C)n(C)n(-c2ccccc2)c1=O)c1c(C)n(C)n(-c2ccccc2)c1=O	5.7%	i	-0.66
O=C(c1cc2nc(-c3ccco3)cc(C(F)(F)F)n2n1)N1CCCCCC1	3.6%	i	1.4
CC(C)(O)C#Cc1ccc(C(=O)NCc2cccs2)s1	-1.9%	i	0.34
COc1ccc(NC(=O)CSc2nnc(C)n2Cc2ccccc2)cc1	3.2%	i	·
O=C1C2=C(Nc3ccccc3SC2c2ccco2)c2ccccc21 (stereo unspecified)	1.3%	i	0.18
CNC(=O)CSc1nnnn1CCCOC	-7.9%	i	-0.37
Cc1n[nH]c(C)c1N1C(=O)c2cccc3cc(Br)cc(c23)C1=O	3.2%	i	-0.41
COc1ccc(C(=O)CSc2nnc(-c3ccco3)n2CC2CCCO2)cc1 (stereo unspecified)	-2.5%	i	0.93
NC1=NC2=C(CCCC2)C2(CCCCC2)S1	0.0%	i	-0.19

# Further records
SMILES	Hsc70	MT1-MMP promoter	WNV protease inh
Cc1ccc(CNC(=O)c2cc3c(=O)n(C)c4ccccc4c3n2C)o1	-0.9%	i	0.21
CCc1cc2c(cc(C(=O)O)n2C)s1	-3.7%	i	-0.42
CC(C)n1c(SCC(=O)Nc2ccc3c(c2)OCO3)nc2c1c(=O)n(C)c(=O)n2C	-1.4%	i	-0.5
CCOC(=O)CSc1nnc(-c2ccc(OC)cc2OC)o1	-7.1%	i	0.75
CCCc1ncc(C(=O)c2ccc(OC)cc2)n1C	4.9%	i	0.14
COc1ccc(C(=O)NCC(=O)n2nc(C)cc2C)cc1OC	-1.1%	i	0.0038
CCCc1nc(SCC(=O)c2ccc(OC)cc2)c2c(=O)n(C)c(=O)n(C)c2n1	3.9%	i	1.2
NC(=O)C1CCN(C(=O)C23CC4CC(CC(C4)C2)C3)CC1	-0.1%	i	-0.93
COC(=O)n1c(=O)oc2cc(S(=O)(=O)N3CCOCC3)ccc21	-0.2%	i	-0.37
COCCn1c(SCCCc2ccccc2)nc2c1c(=O)[nH]c(=O)n2C	-0.1%	i	-1.2
CCc1nnc(NC(=O)c2ccc(S(=O)(=O)NC3CCCCC3)cc2)s1	1.1%	i	0.29
CC(C)(C)n1cnc2cc(NS(=O)(=O)c3ccccc3)ccc21	-2.0%	i	0.66
CCn1c(=O)n(CC)c2cc(S(N)(=O)=O)c(C)cc21	-2.1%	i	0.55
